Source: PubChem (several laboratories)
CBX7 inh – blocks human CBX7 binding to H3K27me3 peptide; O95931; AlphaScreen His6-CBX7 / biotin-H3K27me3 peptide binding; active compounds read low; normalised signal (fraction of DMSO) (test concentration not listed); 66,000 compounds, 1.1% hits; AID 1224903; in the data active means normalised signal below about 0.5;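 further: 100 nL library stock added to about 20 µL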
Target sequence (O95931 whole entry, looked up): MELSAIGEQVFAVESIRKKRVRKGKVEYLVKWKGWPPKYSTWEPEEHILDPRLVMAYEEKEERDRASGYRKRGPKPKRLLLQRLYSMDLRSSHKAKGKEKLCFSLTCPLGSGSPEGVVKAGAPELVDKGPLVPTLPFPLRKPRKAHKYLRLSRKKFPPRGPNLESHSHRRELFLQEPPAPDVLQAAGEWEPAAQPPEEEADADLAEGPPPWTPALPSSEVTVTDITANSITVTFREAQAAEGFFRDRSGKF
CBX7 inh z-score – further read-out of CBX7 inh, marked with its call; z-score; measured here: z-score of CBX7 signal; some inactives read as strong as hits; reference of the scale not given here;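 same signal on another scale; lower means less binding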
* = called active by the depositor; & = joins results of further samples. Some of the compounds tested, so the mix of outcomes need not match the whole.

SMILES | CBX7 inh | CBX7 inh z-score
COc1ccc(N2CCN(C(=O)C3CCN(C(=O)c4cc5sccc5n4C)CC3)CC2)cc1 | 1.08 | 1.52
COc1ccc(NC(=O)c2cc3c(s2)-c2c(C)cccc2OC3)cc1OC | 1.04 | 1.37
CCc1ccc(NC(=O)c2c(-c3ccccc3Cl)noc2C)cc1 | 1 | 0.00429
CCCCOc1ccc(C(=O)NCCc2cc3ccc(C)cc3[nH]c2=O)cc1 | 1.1 | 3.33
Cn1nc(-c2ccc(OCC(=O)NC3CCCCC3)cc2)c2ccccc2c1=O | 1.05 | 1.37
CC(NC(=O)c1ccc(F)cc1)C(c1cccs1)N1CCN(Cc2ccccc2)CC1 (stereo not given) | 1.06 | 0.587
CC(C)c1ccc(NS(=O)(=O)c2ccc3[nH]cc(C(=O)N4CCOCC4)c(=O)c3c2)cc1 | 0.889 | -2.06
COc1ccc(CNC(=O)C(Cc2ccccc2)NS(=O)(=O)c2ccc3c(c2)CCC(=O)N3)cc1 (stereo not given) | 0.936 | -0.416
Cc1cccc(OCC(=O)Nc2ccc3nc(N4CCN(C)CC4)cc(C)c3c2)c1 | 1.06 | 2.26
COc1ccc(CNC(=O)c2n[nH]c(=O)c3ccccc23)cc1OC | 1.08 | 0.774
COc1cc(OC)cc(-c2cc3nc(C)c(CCC(=O)NCc4ccc(F)cc4)c(C)n3n2)c1 | 1.04 | 0.67
Cc1cc(C)nc(NS(=O)(=O)c2ccc(Nc3nc(-c4ccc(C)c(C)c4)cs3)cc2)n1 | 0.899 | -0.771
Cc1ccc(C2CC(C(F)(F)F)n3nc(C(=O)N4CCCCCC4)cc3N2)cc1 (stereo not given) | 0.972 | -0.547
CCN(c1ccccc1)c1ncnc2c1cnn2-c1ccc(OC)cc1 | 0.868 | -0.465
Cc1cccc(NC(=O)NCC(c2cccnc2)N(C)C)c1 (stereo not given) | 1.08 | 0.672
O=C(Nc1ccccc1)N(Cc1nnc2n1CCCCC2)c1ccc(Br)cc1 | 0.96 | -0.0402
COCCN1Cc2cccc(C(=O)NCc3ccc(OC)cc3)c2C1=O | 1.01 | 0.014
CCOC(=O)c1c(NC(=O)COc2ccc(C)cc2)sc2c1CCC(C)C2 (stereo not given) | 1.07 | 2.83
CCOc1ccc(C2C(N3C(=O)c4ccccc4C3=O)C(=O)N2c2ccccc2F)cc1 (stereo not given) | 0.911 | -2.61
CCOC(=O)c1cnc2c(C)c(Cl)ccc2c1Nc1cccc(O)c1 | 0.875 | -1.35
CCOC(=O)CNS(=O)(=O)c1cc(-c2nnc(Nc3ccccc3)c3ccccc23)ccc1C | 0.804 | -3.69
CC(C)N(CCCNC(=O)CC1Oc2ccccc2NC1=O)Cc1ccccc1 (stereo not given) | 1.1 | 0.612
Cn1c(CCCNC(=O)Cc2ccccc2)nc2ccccc21 | 1.05 | 0.766
Cc1ccc(-c2nnc(Nc3ccc(Cl)c(Cl)c3)c3ccccc23)cc1S(=O)(=O)N(C)C | 0.914 | -1.62
CCC(C)C(=O)Nc1nc2c(s1)C(=O)CC(C)(C)C2 (stereo not given) | 0.986 | -0.267
Cc1ccc(-c2cn(-c3ccc(Oc4ccccc4)cc3)c(=O)[nH]2)cc1 | 0.906 | -2.23
CCOc1cccc(C(=O)Nc2cc(-c3nc4ncccc4o3)ccc2Cl)c1 | 1.06 | 2.26
O=C(Nc1sc2c(c1C(=O)N1CCCCCC1)CCCCC2)c1ccccc1F | 1.01 | 0.521
COc1ccc(NC(=O)CSc2nnc(-c3ccc4[nH]c(C)c(C)c4c3)n2Cc2ccccc2)cc1 | 0.796 | -5.81
COc1cccc(C(=O)Nc2c3c(nn2-c2ccccc2C)CSC3)c1OC | 0.975 | -0.62
CC(C)CCNC(=O)CN1CCN(Cc2cccc(Cl)c2)C1=O | 1.09 | 2.4
CCC(C)NC(=O)c1cc(-c2cccs2)on1 (stereo not given) | 0.934 | -0.0657
O=C(OCc1ccccc1)C1CCCN1c1nc(-c2ccc(F)cc2)cs1 (stereo not given) | 1.13 | 5.95
O=C(Nc1ccccc1-c1nc2ccccc2[nH]1)c1cccc(C(F)(F)F)c1 | 1.11 | 1.89
CCCCCOc1ccc(C(=O)C(CN2CCCCC2)c2ccccc2)cc1 (stereo not given) | 1.13 | 1.36
CN(C)CCNC(=O)c1ccc(-c2nn(C)c(=O)c3ccccc23)cc1 | 1.12 | 1.05
Cc1ccc(-c2cc(C(F)(F)F)n3nc(C)c(C#N)c3n2)cc1 | 0.89 | -2.05
CCN(CC)CCNC(=O)c1cc(Sc2nnc(C)s2)nc2ccccc12 | 1.09 | 1.78
O=S(=O)(c1ccccc1)c1nc(-c2ccccc2F)oc1NCc1ccccc1 | 1.07 | 0.709
CCOCCCNC(=O)C1CCN(c2cc(C)nc3c(-c4ccc(Cl)cc4)c(C)nn23)CC1 | 1.06 | 0.158
COCC(C)NC(=O)c1cc(-c2ccc3c(c2)OCO3)on1 (stereo not given) | 1.05 | 1.46
Cc1c2c(c(C)n1C)C(C(=O)NC1CCC(C)CC1)N(c1ccc(Cl)cc1)C2=O (stereo not given) | 1.03 | 1.04
Cc1cc(NC(=O)Cc2ccc(F)cc2)no1 | 1 | 0.104
CCn1c(C(=O)N2CCCC(C(=O)N3CCC(Cc4ccccc4)CC3)C2)cc2sccc21 (stereo not given) | 0.556 | -1.95
CCCCN(C)CCCNC(=O)C1CCN(C(=O)c2cc3sccc3n2C)CC1 | 0.972 | -0.506
Cc1ccc(NC(=O)c2ccc(Oc3ccccc3)cc2)c(C(=O)c2ccccc2)c1 | 0.772 | -1.43
COc1cccc(C(=O)Nc2nc3c(s2)Cc2cc(OC)ccc2-3)c1 | 0.939 | -0.879
COc1ccc(N2CCN(C(=O)c3ccc(C#CC4(O)CCCCC4)cc3)CC2)cc1 | 0.719 | -3.86
O=C(Cc1cccs1)Nc1ccc(-c2nc3ccccc3[nH]2)cc1 | 1.07 | 1.33
Cc1c(C(=O)N2CCCCC2C)sc2ncn(CC(=O)Nc3cccc(C(F)(F)F)c3)c(=O)c12 (stereo not given) | 1.1 | 0.988
COc1ccc(C2=NOC(C(=O)NC(C)c3ccccc3)C2)cc1OC (stereo not given) | 0.989 | -0.396
CCCCNC(=O)Cn1cnc2sc(C)c(S(=O)(=O)N3CCC(C)CC3)c2c1=O | 1.17 | 1.75
Cc1ccc(-c2csc(NC(=O)c3ccc(S(=O)(=O)N4CCCC4)cc3)n2)c(C)c1 | 1.04 | 0.624
CC(=O)N1CCC(N(C(=O)Nc2c(F)cccc2F)C(C)C)CC1 | 1.08 | 0.0752
CCC(=O)N1c2ccc(S(=O)(=O)NCCN3CCN(c4ccccc4F)CC3)cc2CC1C (stereo not given) | 0.995 | -0.149
N#Cc1ccc(NC(=O)c2nn3c(C(F)(F)F)cc(-c4cccs4)nc3c2Br)cc1 | 1.04 | 0.579
COc1ccc(C2=NOC(C(=O)NCc3cccs3)C2)cc1 (stereo not given) | 1.04 | 0.568
Cc1nccc2[nH]c(=O)c(C(=O)NCCc3ccc(Cl)cc3)cc12 | 1.35 | 2.05
COc1ccc(NC(=O)c2cc3c(n(-c4ccc(Cl)cc4)c2=O)CC(C)(C)CC3=O)cc1 | 0.989 | -0.565
CC(=O)c1ccccc1NC(=O)c1cc(S(=O)(=O)N2CCCCC2)ccc1Cl | 1.09 | 0.91

Following part.
SMILES | CBX7 inh | CBX7 inh z-score
CCc1nnc(NC(=O)COc2ccc(Cl)c(C)c2)s1 | 1.16 | 1.36
Cc1ccc(C)c(N2CCN(C(=O)Cc3ccc(NC4=NC5CS(=O)(=O)CC5S4)cc3)CC2)c1 (stereo not given) | 1.02 | 0.46
Cc1noc(C)c1S(=O)(=O)N1CCCC(C(=O)Nc2ccc(Cl)cc2F)C1 (stereo not given) | 1.12 | 1.83
CCOC(=O)c1sc2ncn(CC(=O)Nc3ccc(OC)c(Cl)c3)c(=O)c2c1C | 1.05 | 2.23
CC1CCc2c(C(=O)NCCN3CCOCC3)csc2C1 (stereo not given) | 1.08 | 3.24
Cc1ccccc1NS(=O)(=O)c1ccc2[nH]cc(C(=O)NCCCOC(C)C)c(=O)c2c1 | 1.18 | 4.63
COC(=O)c1cc2c(s1)CN(Cc1ccc(Cl)cc1)C2 | 0.926 | -3.21
CCC(C(=O)N(CC)CC)n1c(C(=O)OC)cc2ccsc21 (stereo not given) | 1.04 | 1.47
COc1cc(OC)cc(-c2nc3nc(C)c(CCC(=O)NCc4ccc(Cl)cc4)c(C)n3n2)c1 | 1.07 | 0.31
Cc1nc2ncnn2c(C)c1CCC(=O)N1CCN(c2ccccc2)CC1 | 1.08 | 1.56
COc1ccc(OC)c(C2=NOC(C(=O)NC3CCCCC3)C2)c1 (stereo not given) | 1.04 | 1.33
CCC(C)Sc1nnc(Cc2cc(=O)[nH]c(=O)[nH]2)n1-c1cccc(C)c1 (stereo not given) | 1.04 | 1.57
CN(Cc1ccccc1)C(=O)c1cc2n(n1)C(C(F)(F)F)CC(c1ccc(Cl)cc1)N2 (stereo not given) | 0.992 | -0.146
CCOc1cccc(N2C(=O)CC(N3CCC(C(=O)O)CC3)C2=O)c1 (stereo not given) | 1.04 | 1.06
OCCNc1ncnc2c1c(-c1ccccc1)cn2-c1cccc(C(F)(F)F)c1 | 0.955 | -1.29
Cc1ccc(-c2nc(CSCC(=O)NC3CCCCC3C)c(C)o2)cc1 (stereo not given) | 0.946 | -1.02
COCCNC(=O)CCn1nc(-c2ccccc2)ccc1=O | 0.999 | -0.0217
Cc1ccc(C)c(Nc2nc3ccccc3nc2-n2nc(C)cc2C)c1 | 2.18 | 23.5
CCc1ccccc1NC(=O)C1CCN(C(=O)c2cnn(-c3ccccc3)c2-n2cccc2)CC1 | 1.37 | 0.838
COc1ccc(N2CCN(c3cc(C)c4ccc(O)cc4n3)CC2)cc1 | 0.907 | -3.73
CCCNC(=O)c1cnn(-c2ccccc2)c1-n1cccc1 | 1.09 | 3.54
CN(C)CCNC(=O)c1cc2c(s1)-c1ccccc1OC2 | 1.15 | 7.34
CC(NC(=O)CCc1cn(Cc2ccccc2)c2ccccc12)c1ccccc1 (stereo not given) | 0.968 | -0.553
Cc1ccc(-n2ncnc2-c2ccccc2Cl)cc1Cl | 1 | 0.0303

Complete entries from above. Values in the order: CBX7 inh | CBX7 inh z-score
`O=C(OCc1ccccc1)C1CCCN1c1nc(-c2ccc(F)cc2)cs1` (stereo not given) reads 1.13 | 5.95
`CC(NC(=O)CCc1cn(Cc2ccccc2)c2ccccc12)c1ccccc1` (stereo not given) reads 0.968 | -0.553

(next part)
SMILES | CBX7 inh | CBX7 inh z-score
Cc1ccc2c(c1)C(c1ccc(F)cc1)N(C(=O)c1c(F)cccc1Cl)CC(=O)N2 (stereo not given) | 0.765 | -4.28
COc1ccccc1N1CCN(C(=O)Cn2ncc3ccsc3c2=O)CC1 | 1 | 0.0399
Cc1ccc(-c2cc(C(=O)NCCCOC(C)C)c3ccccc3n2)cc1C | 1.07 | 2.81
Cc1ccc(-c2nc3ncccc3o2)cc1NC(=O)c1cccc(OCC(C)C)c1 | 0.783 | -2.33
COc1ccccc1NC(=O)c1cc2c(n(-c3ccccc3)c1=O)CC(C)(C)CC2=O | 1.04 | 1.31
Cc1cccc(NC(=O)C2(NS(=O)(=O)c3cccc4cccnc34)CCCCC2)c1 | 1.05 | 0.443
O=C(Cn1nc(-c2ccccc2)c2cc(Cl)ccc21)NC1CCCCCC1 | 1.03 | 1.19
CCOC(=O)c1nnn(-c2nonc2N)c1C | 1.03&1.08 | 0.186&1.85
COc1ccc(Cl)cc1NC(=O)CNC(=O)Cn1ccc2ccccc2c1=O | 0.961 | -0.382
Cc1ccc(N(CC(=O)NC2CCCCCC2)S(=O)(=O)c2cccnc2)cc1 | 1.2 | 1.4
CC1=Nc2cc(C(=O)NCc3ccc(C)cc3)ccc2Sc2ccc(Cl)cc21 | 0.787 | -5.54
O=C(CC1Sc2ccccc2NC1=O)NC1CCCCC1 (stereo not given) | 0.976 | -0.446

7 neighbouring entries already listed, for reference:
SMILES | CBX7 inh | CBX7 inh z-score
Cc1cccc(NC(=O)C2(NS(=O)(=O)c3cccc4cccnc34)CCCCC2)c1 | 1.05 | 0.443
O=C(Cn1nc(-c2ccccc2)c2cc(Cl)ccc21)NC1CCCCCC1 | 1.03 | 1.19
CCOC(=O)c1nnn(-c2nonc2N)c1C | 1.03&1.08 | 0.186&1.85
COc1ccc(Cl)cc1NC(=O)CNC(=O)Cn1ccc2ccccc2c1=O | 0.961 | -0.382
Cc1ccc(N(CC(=O)NC2CCCCCC2)S(=O)(=O)c2cccnc2)cc1 | 1.2 | 1.4
CC1=Nc2cc(C(=O)NCc3ccc(C)cc3)ccc2Sc2ccc(Cl)cc21 | 0.787 | -5.54
O=C(CC1Sc2ccccc2NC1=O)NC1CCCCC1 (stereo not given) | 0.976 | -0.446

Four of the entries above in order of the CBX7 inh z-score value, smallest number first.
Structure	CBX7 inh z-score
O=C(CC1Sc2ccccc2NC1=O)NC1CCCCC1 (stereo not given)	-0.446
COc1ccccc1N1CCN(C(=O)Cn2ncc3ccsc3c2=O)CC1	0.0399
Cc1cccc(NC(=O)C2(NS(=O)(=O)c3cccc4cccnc34)CCCCC2)c1	0.443
Cc1ccc(-c2cc(C(=O)NCCCOC(C)C)c3ccccc3n2)cc1C	2.81

(cont.)
SMILES | CBX7 inh | CBX7 inh z-score
COc1cc(OC)cc(C(=O)Nc2ccc(-c3nc4cc(C)ccc4o3)cc2)c1 | 1.18 | 1.82
CC(C)CCN1CC(C(=O)NCc2ccccc2Cl)CC1=O (stereo not given) | 0.851 | -1.72
O=C(Nc1cnn(Cc2ccc(F)cc2)c1)c1cc(-c2ccc3c(c2)OCO3)on1 | 1.02 | 0.447
Cn1c(=O)n(CC(=O)Nc2ccc(F)cc2)c2ccccc21 | 1 | 0.0624
COc1ccc(CNCCC(c2ccc3c(c2)OCO3)c2ccccc2OC)cc1OC (stereo not given) | 1.35 | 2.77
Cc1ccc(CNC(=O)c2cnn3c(C(F)(F)F)cc(-c4cccs4)nc23)cc1 | 0.999 | -0.00693
COc1cccc(NC(=O)CSCc2nc(-c3cccc(C)c3)oc2C)c1 | 0.891 | -1.54
